Screening data as filed in PubChem BioAssay.
PLK1 PBD block = blocks phosphopeptide binding to human PLK1 polo-box domain; Potency, µM, inactives show max response, negative = inhibition, actives largely listed as inhibitors; 2.8% of 360,000 active; AID 720504; Plk1 PBD binding of FITC phosphopeptide, fluorescence polarization; P53350; note: potency is the fitted concentration of half-maximal effect; series mostly up to about 57 µM; % is set by controls: 0 for no effect and ±100 for the full control effect; nearly all actives have a fitted effect of over 65% in size
Target sequence (P53350 whole entry, looked up, the tested form may be a part): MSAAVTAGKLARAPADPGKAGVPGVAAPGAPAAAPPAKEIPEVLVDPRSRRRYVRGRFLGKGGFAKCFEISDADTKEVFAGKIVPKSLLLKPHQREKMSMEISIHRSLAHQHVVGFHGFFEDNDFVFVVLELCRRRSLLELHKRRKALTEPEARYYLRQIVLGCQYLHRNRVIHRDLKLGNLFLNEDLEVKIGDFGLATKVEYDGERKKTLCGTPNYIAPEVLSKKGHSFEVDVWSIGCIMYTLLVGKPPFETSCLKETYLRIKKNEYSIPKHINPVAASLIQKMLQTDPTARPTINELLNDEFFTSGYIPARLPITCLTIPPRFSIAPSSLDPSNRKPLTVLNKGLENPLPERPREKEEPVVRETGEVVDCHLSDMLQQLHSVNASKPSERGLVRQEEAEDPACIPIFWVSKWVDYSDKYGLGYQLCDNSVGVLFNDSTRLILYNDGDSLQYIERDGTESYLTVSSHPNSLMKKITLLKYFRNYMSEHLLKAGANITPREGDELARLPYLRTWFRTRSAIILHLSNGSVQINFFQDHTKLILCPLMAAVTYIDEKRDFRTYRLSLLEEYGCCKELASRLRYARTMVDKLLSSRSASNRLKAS
IL-2 act = activators of IL-2 | IL-2 activation reporter assay, cell-based qHTS; stimulated with anti-CD3/CD4/CD28 beads; in transgenic mouse T cells | activation, % (series mostly up to about 46 µM) | 0.065% of 360,000 active; in the data active = activation above about 50%; inconclusive = mostly about 30% to 49%; note: 0% is about no effect
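Unstimulated transgenic mouse T cells; 60-min compound exposure; bead-based TCR/CD4/CD28 stimulation; 18 h culture, 37 degrees C; dual fluorescence (EGFP, DsRed) plate cytometry.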
Abeta yeast res = A-beta toxicity reversal in yeast | Potency, µM (series often up to 46.1 µM), for the others: at the highest dose growth rescue, actives largely listed as activators | yeast expressing A-beta42, growth rescue, OD600, 48 h; response scale: 0% DMSO, 100% iron-clioquinol control | 0.063% of 410,000 active; note: potency is the fitted concentration of half-maximal effect; nearly all actives have a fitted effect of over 55% in size
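Growth rescue measured by 600 nm absorbance after 48 h yeast culture at 30 C with compound. Values normalized between DMSO and an equimolar ferric chloride plus clioquinol control.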
EPAC1 antagonist = blocks human EPAC1 exchange factor; EPAC1 GEF assay, Rap1b-BODIPY-GDP exchange fluorescence; Potency, µM (doses to about 115 µM), without a hit: top-dose activity change, negative = inhibition, hits mostly inhibitors; 0.14% of 360,000 active; AID 720709;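 note: potency is the fitted concentration of half-maximal effect; plate controls were vehicle for no effect and positive control for full effect; nearly all actives have a fitted effect of over 50% in size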
FUS yeast rescue = suppressors of FUS proteinopathy in yeast; S. cerevisiae FUS-expressing, growth rescue, OD600, 24 h; Potency, µM (series often up to 76.6 µM), for the others: at the highest dose growth rescue (activation), actives largely listed as activators; 0.24% of 390,000 active; AID 1347120;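 note: potency is the fitted concentration of half-maximal effect; plate controls were DMSO vehicle for no effect and reference control for full effect; nearly all actives have a fitted effect of over 55% in size; some results filed as inactive show a strong effect at the top dose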
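Galactose (2%) drives FUS expression in yeast precultured in raffinose; seeding density OD 0.005. Test compounds incubated 24hr at 30C and 99% humidity before absorbance at 600 nm was measured.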
PI5P4Ka inh = blocks human PI5P4K alpha kinase activity. P48426. PI5P4Kalpha enzyme, ADP-Glo luminescence, 60 min; hits give low values. max response, %. 1.2% of 330,000 active; active = max response of -50% or lower; inconclusive = between -30% and -50%; inactive = -30% or higher; note: value at the top dose of about 77 µM; % is set by controls: 0 for no effect and ±100 for the full control effect
Target sequence (P48426 whole entry, looked up): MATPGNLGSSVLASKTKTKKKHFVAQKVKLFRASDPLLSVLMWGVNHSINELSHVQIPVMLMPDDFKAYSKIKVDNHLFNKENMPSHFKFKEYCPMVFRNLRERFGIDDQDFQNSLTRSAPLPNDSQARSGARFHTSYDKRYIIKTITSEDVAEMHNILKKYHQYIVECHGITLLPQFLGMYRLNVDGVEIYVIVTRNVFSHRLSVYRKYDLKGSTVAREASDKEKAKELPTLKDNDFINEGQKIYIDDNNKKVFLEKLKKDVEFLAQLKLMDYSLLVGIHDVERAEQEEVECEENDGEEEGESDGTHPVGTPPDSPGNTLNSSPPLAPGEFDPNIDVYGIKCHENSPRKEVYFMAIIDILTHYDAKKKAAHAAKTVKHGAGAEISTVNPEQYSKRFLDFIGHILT
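ADP-Glo luminescence end-point read after a 60 min room-temperature kinase reaction of PI5P4Kalpha plus substrate, initiated with ATP at 5 microM final. Buffer: 0.038 M HEPES pH 7.4, EGTA, 0.1% CHAPS, 5% DMSO.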
aSyn rescue = inhibitors of alpha-synuclein toxicity in yeast. Yeast expressing alpha-synuclein, growth rescue, BacTiter-Glo, 24 h. Potency, µM (series often up to 46.1 µM), for inactives: at the top dose growth rescue (activation), hits mostly activators. 0.14% of 370,000 active; note: potency is the fitted concentration of half-maximal effect; % of control where 0% means no effect; nearly all actives have a fitted effect of over 65% in size
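Galactose-induced alpha-syn yeast (OD600=0.02, raffinose-pregrown) + pinned cpd, 24 hr, 30 deg C; growth by BacTiter-Glo luminescence. Growth restoration scores as activation.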
EPAC1 ag = EPAC1 (human) agonism | O95398 | AID 720707 | EPAC1 agonist qHTS, biochemical assay; response scale: 100% = response to 6.5 mM cAMP | 0.073% of 360,000 active | Potency, µM (doses to about 154 µM), without a hit: top-dose activation, most hits filed as activators; note: potency is the fitted concentration of half-maximal effect; nearly all actives have a fitted effect of over 60% in size
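Nucleotide exchange by EPAC1 (100 nM) on Rap1B–BODIPY-GDP (250 nM) in the presence of 50 uM GDP is tracked fluorescently at 480/540 nm over 30 min. Signals are normalized to a 6.5 mM cAMP control.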
Starred values were filed as active, the others as inactive; ? = inconclusive; / = not tested or not shown; [ ] = another dose, or the depositor's remark. Unless noted, calls come from the whole dose curve; as a rule, active = well fitted curve in the direction sought with a large enough effect; inconclusive = small, poorly fitted or top-dose-only effect, or another doubt; inactive = no such curve, though single readings can be large; an effect the other way counts as inactive or inconclusive. Only part of the results is shown; the hit share may differ from the screen's.

SMILES	PLK1 PBD block	IL-2 act	Abeta yeast res	EPAC1 antagonist	FUS yeast rescue	PI5P4Ka inh	aSyn rescue	EPAC1 ag
CCN1CCCC1CNS(=O)(=O)c1c(C)cc(C)cc1C (configuration not stated)	?	-2.1	-21%	-22%	-69%[inhibitor]	12	-5%	-13%
CCN(CC)CCNc1nc2nonc2nc1NCCN(CC)CC	-9%	0.0	-6%	-4%	-20%	0	-4%	1%
CCCN1C(=O)/C(=c2\sc3nc(=O)c(Cc4ccc(C)cc4)nn3c2=O)c2ccccc21	30µM*	-4.9	3%	-21%	14%	-27	-5%	-9%
CC(C)C[C@H](NC(=O)c1nc[nH]c1C(=O)NC1CCN(C(=O)OC(C)(C)C)CC1)C(=O)OC(C)(C)C	-3%	-0.8	5%	?	14µM*	5	-3%	-31%[inhibitor]
CC(=O)N1CCc2cc(C(=O)CN3CCN(c4ccccn4)CC3)ccc21	-2%	1.2	21%	3%	-7%	2	3%	8%
COc1ccc(S(=O)(=O)N(CCCN2CCOCC2)Cc2ccc(OC)c(OC)c2)cc1	-6%	-0.3	-11%	10%	-5%	9	-6%	4%
CCCCCOc1ccc(C(O)C(CN2CCOCC2)c2ccccc2)cc1 (configuration not stated)	27µM*	-0.6	-13%	-9%	-1%	1	3%	-4%
COc1ccc(-c2nnc(SCC(=O)Nc3cc(C)on3)n2C)cc1OC	2%	0.1	0%	4%	30%	/	-17%	1%
COc1cc(/C=C(\C#N)c2nc3ccccc3[nH]2)cc(Br)c1OCc1ccc(F)cc1	-1%	-1.9	-6%	-10%	21%	-1	-2%	4%
O=c1c2c(nc3c(-c4ccccc4)c[nH]n13)CCC2	-12%	1.5	-12%	-19%	?	/	-7%	11%
Cc1[nH]c2ccccc2c1C(=O)C(=O)N1CCN(c2ccccc2)CC1	-8%	-7.3	11%	4%	28%	7	0%	3%
CCCc1cc(=O)oc2c(C)c(OCc3nn[nH]n3)ccc12	-4%	0.3	-19%	-28%	-17%	?	2%	7%
CC(=O)Nc1cccc(-c2cc(NC(C)=O)c3ncc(-c4cccc(C(C)=O)c4)n3c2)c1	?	-0.7	16%	12%	29%	-11	0%	7%
CN1CCNC(=O)C1CC(=O)NCCC1=CCCCC1 (configuration not stated)	-2%	-0.5	-8%	0%	-48%	3	-9%	-13%
O=C(Cn1cnc2sc3c(c2c1=O)CCCC3)NCC(=O)Nc1ccccc1F	-3%	-0.3	6%	2%	7%	-2	-5%	12%
CC[n+]1c(/C=C/c2c[nH]c3ccccc23)ccc2cc(C)ccc21	95%[activator]	68*	-30%	-9%	34%	-19	-17%	23%
Cc1ccc(S(=O)(=O)N2CCN(C(=O)COC(=O)/C=C/c3cccc([N+](=O)[O-])c3)CC2)c(C)c1	-10%	4.4	-9%	-12%	/	-6	1%	8%
COc1ccc(-c2cc(NC=O)c3ncc(-c4ccc(OC)c(OC)c4)n3c2)cc1	-21%	-0.4	-7%	-9%	?	-51*	-18%	8%
O=C(NN=Cc1ccccc1OC(F)F)c1ccc(NS(=O)(=O)c2cccs2)cc1	1%	0.1	-3%	-10%	/	-63*	-11%	0%
CN(C)CCOCCOc1ccc(Cl)cc1C(C)(C)C	6%	-1.0	-26%	-6%	-9%	12	3%	-20%
CCOc1ccc(OCC)c(NC(=O)CSc2nnnn2CC)c1	-8%	-1.3	5%	-2%	8%	-1	-4%	10%
NC(=O)c1ccc(-c2c(-c3ccccc3)sc3ccccc23)cc1	-2%	0.0	-13%	-9%	-14%	2	-7%	-8%
Cc1ccc(NC(=O)CN2C(=O)N/C(=C/c3ccco3)C2=O)cc1	-17%	0.0	-8%	?	16%	?	-2%	-6%
C=CCn1c(=S)[nH]c2scc(-c3ccc(C)o3)c2c1=O	?	-0.5	27%	-16%	15%	?	0%	0%
Cc1ccc(-n2nnnc2C(Cl)c2nnnn2-c2ccc(C)cc2)cc1	?	-1.3	-74%[inhibitor]	-8%	-29%	1	-47%[inhibitor]	-12%

(listing goes on)
SMILES	PLK1 PBD block	IL-2 act	Abeta yeast res	EPAC1 antagonist	FUS yeast rescue	PI5P4Ka inh	aSyn rescue	EPAC1 ag
CCS(=O)(=O)N1CCN(C2Cc3ccccc3C2)CC1	1%	-0.5	-13%	2%	10%	1	-4%	1%
O=C1CC(c2ccc(F)c(Br)c2)C2=C(CCCC2=O)N1 (configuration not stated)	-4%	-0.6	7%	-9%	6%	2	4%	2%
Cc1cc2c(c(=O)n1CCN(C)C)C(c1ccc(Br)cc1)C(C#N)=C(N)O2 (configuration not stated)	-2%	2.4	10%	9%	-3%	-1	2%	-1%
C/C(=N\NC(=O)c1ccc(NS(=O)(=O)c2cccs2)cc1)c1ccccc1	-1%	0.7	6%	-8%	/	-53*	-9%	-7%
COc1ccc(CCC(=O)NCc2cccc(C(F)(F)F)c2)cc1	-13%	0.9	20%	-14%	7%	0	2%	-4%
CCCOc1ccc(C(=O)CCN2CCCCC2)cc1	13µM*	-0.8	-17%	-9%	5%	0	-18%	14%
Cc1ccc(SCC(=O)Nc2cccc(NC(=O)c3ccco3)c2)cc1	-1%	1.9	0%	1%	/	4	-16%	0%
COc1ccc(C(=O)C(CN2CCOCC2)c2ccccc2)cc1 (configuration not stated)	-4%	-4.3	-18%	-3%	4%	/	0%	4%
C=C1CCN([C@@H](CC(C)C)C(=O)N2CCOCC2)S(=O)(=O)c2ccccc21	-11%	-4.1	13%	-6%	-9%	12	3%	5%
Cc1cc(C)c(NC(=O)C2CCCN2CCC(C)C)c(C)c1 (configuration not stated)	-7%	-0.9	9%	-20%	-1%	0	-2%	1%
COc1ccc(OC)c(CN(CCN2CCOCC2)S(=O)(=O)c2ccc(NC(C)=O)cc2)c1	-14%	-0.4	4%	-4%	13%	1	-10%	5%
Cc1cccc(NC(=O)/C(C#N)=C/c2ccc(Sc3ccccc3)o2)c1C	-9%	1.5	-13%	-20%	-9%	-1	-4%	30%
CCCc1cc(=O)[nH]c(SCC(=O)NCC2COc3ccccc3O2)n1 (configuration not stated)	-2%	1.4	-10%	-10%	-13%	-2	-9%	6%
O=C(CSc1nnc(C2CCCCC2)n1-c1ccccc1)NCc1ccco1	-10%	-2.0	17%	-3%	4%	/	0%	-2%
COC(=O)C1=CN(c2cccc(C(F)(F)F)c2)C=C(C(=O)OC)C1c1ccc(O)c(OC)c1	9%	-3.0	-2%	-18%	?	1	5%	-11%
COc1cc2c(cc1OC)CN(CCC(=O)c1ccc(Br)cc1)CC2	4.7µM*	-2.0	-22%	-1%	15%	?	-27%	4%
O=C(Nc1nc2ccccc2[nH]1)c1cccc(Br)c1	0%	-0.1	2%	6%	6%	4	-7%	-2%
O=C(OCC(=O)N1CCN(S(=O)(=O)c2ccc(Cl)cc2)CC1)C1CC1	5%	0.2	3%	2%	-8%	-5	2%	8%
CC(=O)OCC1=C(C(=O)O)N2C(=O)C(NC(=O)c3ccc(COc4ccc(Cl)cc4)o3)C2SC1 (configuration not stated)	?	-5.3	-23%	5%	30%	-28	-4%	-3%
CC(=O)c1ccc(N2CCN(C(=O)c3cccc(Oc4ccccc4)c3)CC2)cc1	2%	-4.8	-7%	-1%	25%	3	11%	6%
Cc1ccc(-n2cccc2/C=C2/NC(=O)N(CC(=O)Nc3cccc(C)c3)C2=O)cc1	-7%	-1.5	-21%	?	31%	2	1%	-2%
O=C(c1ccc2ccccc2c1)N1CCN(c2ccccc2)CC1	-1%	-1.2	3%	-5%	29%	/	14%	4%
CCOc1ccc(NC(=O)CN(C)S(=O)(=O)c2ccc(-c3ccc(=O)[nH]n3)s2)cc1	-27%	-2.3	0%	?	?	-6	-1%	5%
CC1(C(=O)NS(=O)(=O)C2CC2)CCCN(C(=O)c2ccccc2C(F)(F)F)C1 (configuration not stated)	-1%	0.2	-5%	3%	-5%	0	2%	6%
COc1ccc(/C=C2/NC(=O)N(CC(=O)Nc3cccc(C)c3)C2=O)cc1O	-7%	-1.0	-8%	0%	17%	-4	12%	-2%

(cont.)
SMILES	PLK1 PBD block	IL-2 act	Abeta yeast res	EPAC1 antagonist	FUS yeast rescue	PI5P4Ka inh	aSyn rescue	EPAC1 ag
CCS(=O)(=O)N1CCN(C2CCC(C)CC2)CC1 (configuration not stated)	-6%	-0.3	-19%	10%	-2%	/	0%	22%
CCN1CCCC1CNS(=O)(=O)c1ccc(C(=O)Nc2ccccc2)cc1 (configuration not stated)	-10%	-2.7	-1%	7%	11%	3	-7%	1%
Cc1ccc(S(=O)(=O)N2CCN(C(=O)COC(=O)/C=C/c3ccc(OC(F)F)cc3)CC2)cc1	-19%	-0.3	-4%	?	-8%	0	0%	-3%
COc1cc(-c2cnc3c(NC=O)cc(-c4cccnc4)cn23)cc(OC)c1OC	-8%	-0.2	-15%	-4%	20%	-26	-7%	-21%
Cc1ccc(CNC(=O)C(C)OC(=O)c2cccs2)cc1 (configuration not stated)	-19%	-1.0	-3%	3%	6%	0	-10%	2%
COc1ccc(OC)c(-c2csc(N3CCC(c4ccccc4)CC3)n2)c1	-5%	0.6	?	-18%	2%	9	3%	5%
CN1C(=O)[C@H]2[C@@H](C3CC3)N3C(=O)CN(Cc4ccccn4)C(=O)[C@@]3(Cc3ccccc3)[C@H]2C1=O	2%	-1.1	20%	7%	-25%	2	6%	-13%
O=CNc1cc(-c2cccc(F)c2)cn2c(-c3ccc(F)cc3)cnc12	-23%	-0.6	-6%	-5%	11%	-23	-7%	13%
Cc1ccc(-c2[nH]n3c(=O)c4c(nc3c2C)CCCC4)cc1	-1%	-0.1	12%	6%	-7%	-8	/	2%
Cc1cc(C)c(NC(=O)C2CCCN2C(=O)NC2CCCCC2)c(C)c1 (configuration not stated)	4%	0.2	26%	-18%	-2%	-2	4%	13%
CC(C)c1nc2n[nH]c(N)c2c2c1CCC2	-9%	0.7	22%	3%	19%	2	-14%	3%
CN(Cc1c(F)cccc1Cl)C(=O)c1cnc2ccccc2n1	0%	-4.5	-3%	-11%	-5%	4	-1%	3%
COc1ccc(-c2ccc(-c3nnc(-c4cc(OC)ccc4OC)o3)cc2)cc1	-1%	-1.0	15%	13%	-14%	/	-9%	-7%
CC(=O)Nc1cccc(/C(C)=N/NC(=O)c2ccc(NS(=O)(=O)c3cccs3)cc2)c1	-14%	-0.3	-1%	-25%	13%	-55*	11%	-1%
N#CC(c1cccc(C(F)(F)F)c1)(c1ncc(C(F)(F)F)cc1Cl)N1CCOCC1 (configuration not stated)	-3%	-0.1	7%	-6%	12%	/	-9%	12%
CC1(C(=O)NS(=O)(=O)C2CC2)CCCN(C(=O)c2c(F)cccc2F)C1 (configuration not stated)	0%	2.2	-6%	-9%	-19%	7	0%	-2%
